Screening data from PubChem.
FEN1 inhibitor = blocks human flap endonuclease 1. AID 588795. Potency, µM (titrated, usually from 114 µM), inactives show at the highest dose activity change, negative = inhibition, most hits filed as inhibitors. 0.35% of 390,000 active. Recombinant FEN1 flap cleavage, fluorescence, 15 min. P39748; also: nearly all actives have a fitted effect of over 65% in size
Target sequence (P39748 whole entry, looked up): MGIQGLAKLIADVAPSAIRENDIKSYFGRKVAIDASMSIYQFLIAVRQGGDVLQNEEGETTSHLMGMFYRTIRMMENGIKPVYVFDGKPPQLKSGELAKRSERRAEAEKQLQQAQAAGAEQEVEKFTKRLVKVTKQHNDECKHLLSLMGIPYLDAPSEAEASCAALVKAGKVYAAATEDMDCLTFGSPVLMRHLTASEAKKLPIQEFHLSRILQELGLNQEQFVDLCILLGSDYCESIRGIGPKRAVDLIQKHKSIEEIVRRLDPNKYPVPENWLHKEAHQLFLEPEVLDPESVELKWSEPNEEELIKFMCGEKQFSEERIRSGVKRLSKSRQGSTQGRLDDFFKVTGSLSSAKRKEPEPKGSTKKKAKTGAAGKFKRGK
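Steps: FEN1 (10 nM) dispensed; compound added by pin tool; 15 min at room temperature; substrate added to 50 nM final; reads at 0 min and 15 min; data normalized and fitted (four-parameter Hill).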
N370S GC mod = inhibitors or activators of N370S glucocerebrosidase for Gaucher disease | N370S GC spleen homogenate, 4MU-glucoside fluorescence | P04062 | 0.092% of 330,000 active | Potency, µM (series often up to 59.4 µM), inactives show at the top dose activity change, negative = inhibition, most hits filed as inhibitors;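 also: 0% = full enzyme activity and -100% = no enzyme basal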
* marks the source's active call; other numbers are inactive results; ? = inconclusive; · = no result given; & = joins results of further samples; [ ] = dose if it differs, or a comment. Calls follow the shape of the dose curve; as a rule, active = well fitted curve in the direction sought with a large enough effect; inconclusive = small, poorly fitted or top-dose-only effect, or another doubt; inactive = no such curve, though single readings can be large; an effect the other way counts as inactive or inconclusive. Unless noted, % is scaled to controls: 0 for no effect and ±100 for the full control effect; potency is read from the fitted curve at half-maximal effect.

nr	mol	FEN1 inhibitor	N370S GC mod
1	O=C(CCCn1c(=S)[nH]c2ccccc2c1=O)N1CCOCC1	-6%	-10%
2	COc1cc(NC(=O)Nc2ccc(Cl)c(Cl)c2)c(C(=O)O)cc1OC	-24%	11%
3	CCOc1ccc(NC(=O)COC(=O)c2cc(C)oc2C)cc1	-5%	·
4	CCCNC(=O)[C@@H]1CCCN1C(=O)C1CCN(S(=O)(=O)c2ccc(C)cc2)CC1	-15%	2%
5	O=C(CSc1nc2ccccc2c(=O)n1Cc1ccc(Cl)cc1)NCc1cccs1	4%	2%
6	O=C(c1noc2c1CCCCC2)N1CCOCC1	-2%	?
7	CN1CCN(C(=S)c2ccc(Cl)cc2)CC1	1%	3%
8	Cc1ccc(N2CC(C(=O)N3CCC(C(=O)Nc4cccc(Br)c4)CC3)CC2=O)cc1 (configuration not stated)	7%	-4%
9	CCOc1ccccc1NC(=O)N(C)CCc1c(C)nn(CC)c1C	17%	·
10	Cc1cccc(C(=O)N(Cc2ccco2)Cc2ccccc2F)c1	-6%	·
11	CCC1CCCCN1CCNC(=O)CNS(=O)(=O)c1ccc2nc(C)sc2c1 (configuration not stated)	0%	-3%
12	Cc1cc(NC(=O)CN(C)S(=O)(=O)c2ccc(-c3ccc(=O)[nH]n3)s2)ccc1Br	23%	-1%
13	CSCC[C@H](NC(=O)NCc1cccs1)C(=O)O	-16%	6%
14	O=C(Nc1nc2ccc(S(=O)(=O)N3CCCC3)cc2s1)c1ccco1	4%	16%
15	CC1CN(S(=O)(=O)c2ccccc2)C(C)CN1S(=O)(=O)c1ccccc1 (configuration not stated)	2%	-1%
16	Cc1ccc2cc(/C=N/NC(=O)[C@H]3C[C@@H]3c3ccccc3)c(Cl)nc2c1	-2%	27%
17	N#C/C(=C\c1ccc(-c2ccc(F)cc2)o1)C(=O)Nc1nc(-c2cccs2)cs1	-5%	6%
18	COC(=O)c1ccc(C)c(NC(=O)CCc2ccc(OC)c(OC)c2)c1	-3%	-8%
19	CCCCn1c(N)c(N(CC(C)C)C(=O)CSC(C)C(=O)Nc2cc(C)on2)c(=O)[nH]c1=O (configuration not stated)	4%	-1%
20	CC(=O)NC1=NN(C(C)=O)C2(CCCC2)S1	3%	1%
21	COc1ccccc1-n1cc(C(=O)c2cc(Cl)ccc2O)cc(C#N)c1=O	-5%	-8%
22	CNc1ccccc1C(C)(C)c1cc(-c2cccc(Br)c2)no1	-30%	14%
23	O=C(NC(=S)Nc1ccccc1[N+](=O)[O-])c1ccco1	-5%	3%
24	Cc1ccc(C(=O)NCCN2CCOCC2)cc1Cl	2%	-1%[2.35 µM]
25	COC(=O)C(C(=O)OC)=C(/C=C/C=C/N(C)C)N(C)C	6%	5%[2.35 µM]
26	Cc1nn(C)c(C)c1NC(=O)CCSc1nc(-c2ccco2)cc(C(F)(F)F)n1	7%	1%
27	CCC(Cc1ccccc1)NC(=O)C1CCN(c2nn3c(=O)cc(C)nc3s2)CC1 (configuration not stated)	21%	-1%
28	CC(=O)N1CCN(Cc2nc3scc(-c4ccccc4)c3c(=O)[nH]2)CC1	-3%	-7%
29	Cc1cccc2nc(-c3ccc(N(C)C)cc3)c(Nc3ccc4c(c3)OCO4)n12	17%	·
30	COc1ccc(C(=O)N(C)c2c(C)n(C)n(-c3ccccc3)c2=O)cc1OC	22%	4%
31	C/C(=N\NC(=O)c1nnn(-c2nonc2N)c1-c1ccc2c(c1)OCO2)c1ccccc1	19%	-12%
32	COc1cccc(CCNC(=O)c2cc(COc3c(F)cccc3F)on2)c1	14%	-17%
33	Cc1ccc(N2C(=O)c3ccccc3C2C(=O)c2ccc(O)cc2O)cc1 (configuration not stated)	40µM*	-6%
34	COc1ccc(OCC(=O)N/N=C(\C)CC(=O)Nc2ccc(OC)cc2[N+](=O)[O-])cc1	4%	-1%
35	Cc1c2oc3c(C)ccc(C(=O)N[C@@H]4C(=O)N[C@@H](C(C)C)C(=O)N5CCC[C@@H]5C(=O)N(C)CC(=O)N(C)[C@@H](C(C)C)C(=O)O[C@H]4C)c3nc-2c(C(=O)N[C@@H]2C(=O)N[C@@H](C(C)C)C(=O)N3CCC[C@@H]3C(=O)N(C)CC(=O)N(C)[C@@H](C(C)C)C(=O)O[C@H]2C)c(N)c1=O	·	-7%
36	Cn1c(=O)n(C)c2cc([N+](=O)[O-])c(N3CCN(S(=O)(=O)c4ccccc4)CC3)cc21	-3%	-14%
37	Cn1c(=O)n(C)c2cc(C(=O)Nc3ccc4c(c3)OCO4)ccc21	-5%	-2%
38	N=c1sccn1CC(=O)N1CCc2ccccc21	10%	2%
39	Cc1occc1C(=O)N/N=C/c1ccc(-c2ccccc2)cc1	-8%	0%
40	O=C(Nc1ccc2c(c1)CCC2)c1cc(S(=O)(=O)Nc2ccc(F)cc2)c(Cl)cc1Cl	?	4%
41	CCC(C)(C)c1ccc(Oc2cccc(C(=O)O)c2)cc1	-5%	15%
42	CCN(CCCNC(=O)c1nn(C)c2c1CS(=O)(=O)c1ccccc1-2)Cc1ccccc1	-15%	-5%
43	O=C(O/N=C1\CCCc2ccccc21)c1cccc(Cl)c1	17%	-9%
44	Cc1cccc(NC(=O)C2CCCN2S(=O)(=O)c2ccc(F)cc2)c1C (configuration not stated)	5%	20%
45	O=C(Nc1ccc(N2CCN(C(=O)c3ccco3)CC2)cc1)c1ccc2c(c1)OCO2	0%	-10%
46	CC(C)(C)c1cc(C(=O)N/N=C/c2ccco2)n[nH]1	5%	1%
47	COc1ccc(OCC(=O)N2CCN(c3cccc(C(F)(F)F)c3)CC2)cc1	-16%	-4%
48	COc1cccc(-c2cc3onc(-c4ccccc4)c3c(=O)n2C)c1	2%	4%
49	CCOC(=O)N1CCC(Nc2c(NCCN3CCN(Cc4ccccc4)CC3)c(=O)c2=O)CC1	-7%	-14%
50	N#Cc1ccc(C(c2nnnn2C2CCCC2)N2CCC(Cc3ccccc3)CC2)cc1 (configuration not stated)	-7%	16%
51	COCCCNC(=O)C1C2C=CC3(CN(Cc4ccc(C)cc4)C(=O)C13)O2 (configuration not stated)	-9%	9%
52	N#CCCCSc1nnc(CSc2nc3ccccc3s2)n1-c1ccccc1	-12%	27%
53	CCCc1nc2oc3c(NCCN4CCOCC4)ncnc3c2c2c1CCCC2	24%	-22%[2.35 µM]
54	CC(C)(C)c1ccc(OCC(=O)O)cc1	-14%	3%&-16%
55	CCCCOC(=O)COc1ccc(Cl)cc1Cl	14%	10%
56	O=C(Nc1ccc2ccccc2c1)/C(=C/c1cccc(Br)c1)NC(=O)c1ccco1	4%	10%
57	c1n[nH]c(SCCCCSc2ncn[nH]2)n1	2%	-1%
58	CCCn1c(SCC(=O)NCc2ccccc2)nnc1-c1ccncc1	7%	-3%
59	CC(C)(C)c1ccc(COC(=O)CN2C(=O)NC3(CCCC3)C2=O)cc1	-13%	2%
60	COc1cccc(C(=O)NCCS(=O)(=O)NCc2ccco2)c1	-10%	0%

Another view of part of the listing above.
#8 Cc1ccc(N2CC(C(=O)N3CCC(C(=O)Nc4cccc(Br)c4)CC3)CC2=O)cc1 (configuration not stated)
  FEN1 inhibitor: 7%; N370S GC mod: -4%
#48 COc1cccc(-c2cc3onc(-c4ccccc4)c3c(=O)n2C)c1
  FEN1 inhibitor: 2%; N370S GC mod: 4%
#9 CCOc1ccccc1NC(=O)N(C)CCc1c(C)nn(CC)c1C
  FEN1 inhibitor: 17%; N370S GC mod: ·

Record cards (already shown):
Cn1c(=O)n(C)c2cc(C(=O)Nc3ccc4c(c3)OCO4)ccc21 in the list: FEN1 inhibitor: -5%; N370S GC mod: -2%
N#Cc1ccc(C(c2nnnn2C2CCCC2)N2CCC(Cc3ccccc3)CC2)cc1 (configuration not stated) in the list: FEN1 inhibitor: -7%; N370S GC mod: 16%
CCCc1nc2oc3c(NCCN4CCOCC4)ncnc3c2c2c1CCCC2 in the list: FEN1 inhibitor: 24%; N370S GC mod: -22%[2.35 µM]

Continued:
nr	mol	FEN1 inhibitor	N370S GC mod
61	COc1cc(/C=C(\C#N)C(N)=O)ccc1OS(=O)(=O)c1ccc(C)cc1	-17%	-8%
62	O=C(C1CCCN(CCCc2ccccc2)C1)N1CCCCC1 (configuration not stated)	10%	3%
63	Cc1ccc(CNC(=O)CCC2CCCN(Cc3cccc4cccnc34)C2)o1 (configuration not stated)	-1%	-2%
64	Cc1ccccc1N/N=C/c1ccc(C#N)cc1	-1%	2%
65	O=C(COC(=O)C1CCC(=O)N1)Nc1ccc(Cl)cc1Cl (configuration not stated)	2%	-6%
66	COc1ccc(CN(C(=O)c2ccco2)c2ccc(Br)cc2)cc1OC	-21%	3%
67	O=C(Nc1ccc2c(c1)CCC2)c1ccccc1Br	-9%	12%
68	CC(C)(C)C(=O)/C=c1\[nH]c(=O)/c(=C\c2ccc(F)cc2)s1	-2%	12%
69	CCOC(=O)N1CCC(n2c(SCC(=O)Nc3nccs3)nc3ccsc3c2=O)CC1	-13%	-2%
70	NS(=O)(=O)c1ccc(N/C=C\C(=O)c2cccc3ccccc23)cc1	-2%	-14%
71	O=[N+]([O-])c1ccc(COc2ccccc2/C=N/O)cc1	9%	-16%
72	CC(=O)C1=C(C)NC(=O)NC1c1cccc([N+](=O)[O-])c1O (configuration not stated)	3%	4%
73	Cc1ccc(S(=O)(=O)N2CCOCC2)cc1C(=O)N1CCOCC1	-2%	-8%
74	COc1cccc(-c2cc(C(=O)NCc3ccc(Cl)cc3)no2)c1	-6%	4%
75	COc1ccc(-c2cc(CCC(=O)N3CCN(c4cc(C)ccc4C)CC3)on2)cc1	-21%	·
76	Cn1c(=O)[nH]c(=O)c2c1nc(Br)n2Cc1cccc(Br)c1	-1%	-1%
77	COc1ccc(CNC(=O)C2CCCN(S(=O)(=O)N(C)c3ccc(F)cc3)C2)cc1OC (configuration not stated)	12%	·
78	Cc1ccc(C(c2c(C)nn(-c3ccccc3)c2N)c2c(C)nn(-c3ccccc3)c2N)cc1	-17%	-7%
79	CCOC(=O)C1(Cc2ccccc2)CCCN(C(=O)c2cnn(CC)c2)C1 (configuration not stated)	-6%	-16%
80	C=C(C)C(O)CC/C(C)=C/Cc1c(O)ccc(C(=O)/C=C/c2ccc(O)cc2)c1O (configuration not stated)	-21%	·
81	Cn1c(CN2CCCC(C(=O)c3ccc4c(c3)OCO4)C2)nc2ccccc21 (configuration not stated)	1%	-8%
82	O=C(CN1CCC(NC(=O)c2cccc(F)c2)CC1)NCc1ccccc1F	10%	25%
83	O=c1c(-c2ccc(Cl)cc2)c(C(F)(F)F)oc2c(CN3CCCCC3)c(O)ccc12	5%	·
84	O=C(COc1ccc(F)cc1)Nc1ccccc1N1CCOCC1	10%	-18%
85	O=S1(=O)N=C(Nc2ccc(N3CCOCC3)cc2)c2ccccc21	15%	0%
86	CCN(CC)C(=S)NC(=O)c1ccc(Cl)cc1Cl	5%	4%
87	CCSc1nc(-c2ccc(Cl)cc2)nc2c1Cc1c(CO)cnc(C)c1O2	-5%	·
88	Cc1nnc(SCC(=O)NCc2ccco2)n1-c1ccccc1	-4%	0%
89	C=C(C)c1cccc(C(C)(C)NC(=O)Nc2ncccn2)c1	-2%	26%
90	COc1ccc(C)cc1NC(=O)CN1c2ccccc2S(=O)(=O)c2ccccc21	-13%	·
91	CCOc1ccccc1C1NC(=O)NC(C)=C1C(=O)OCc1ccco1 (configuration not stated)	-17%	-9%
92	O=S(=O)(N/N=C\c1cn(-c2ccccc2)nc1-c1ccccc1)c1ccccc1	-22%	4%
93	N#Cc1ccc(-c2ccc(F)cc2)nc1Sc1ccc(F)cc1	1%	-8%
94	CC(C)N1CCC(NC(=O)Nc2ccccc2)CC1	-5%	0%
95	CCCCN(CC)C(=O)Cc1c(C(=O)O)[nH]c2ccc(Cl)cc12	-4%	-2%
96	O=S(=O)(Nc1cccc(-c2ccc(N3CCCCC3)nn2)c1)c1ccc(Cl)s1	0%	·
97	COC(=O)CCN(C(=O)C1C2CC3CC(C2)CC1C3)c1ccccn1 (configuration not stated)	-1%	-2%
98	Cc1cccc(C)c1-n1nnnc1SCC(=O)c1c(N)n(C2CC2)c(=O)[nH]c1=O	-5%	·
99	O=S(=O)(NCc1ccc2c(c1)OCO2)c1cccc(S(=O)(=O)N2CCOCC2)c1	0%	-7%
100	CN(Cc1ccccc1)S(=O)(=O)c1ccc(Cl)c(C(=O)NCc2ccncc2)c1	8%	-2%
101	O=C(CCc1ccccc1)Nc1ccnn1C1CCN(Cc2ncc[nH]2)CC1	-12%	-17%
102	CC(=O)c1ccc(NS(=O)(=O)c2cc(-c3cc(C)no3)ccc2C)cc1	-4%	·
103	O=S(=O)(Nc1nc2ccccc2nc1NCCO)c1cccc(Cl)c1	2%	-24%
104	Cc1cn(C2C=CC(CO)O2)c(=O)[nH]c1=O (configuration not stated)	1%	4%
105	COc1ccc(NC(=O)Nc2ccccc2OC)cc1	4%	0%
106	CC(C)(C)NC(=O)Cn1nnc(-c2ccccc2Cl)n1	7%	-23%
107	CCN1CCc2nc(NC(=O)Cc3ccc4c(c3)OCCO4)sc2C1	-14%	-3%
108	CC(Sc1ccc(Cl)cc1)C(=O)Nc1ccccc1-c1ccccc1 (configuration not stated)	-12%	7%
109	CCCCn1c(SCC(=O)NCCOC)nc2ccc(N3CCOCC3)cc2c1=O	-9%	6%

Not all compounds are listed; most or all hits stand in other tables.
